Compound activity from PubChem.
Methyltransferases: Primary Screen for Target Class Profiling of Small Molecule Inhibitors of Methyltransferases; purified enzyme, MTase-Glo SAH luminescence; active compounds read low; calls only at 40 µM; 25,000 compounds, 3.9% hits; AID 1745853, 2022; active = -50% or lower on at least one of six enzymes; inconclusive = the cases between; inactive = as a rule above -30% on all six;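 further: enzymes were COMT GAMT GNMT HNMT NNMT and PNMT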
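Each enzyme was reacted with SAM and its substrate, with compounds tested once at 40 uM; SAH formed was read by MTase-Glo luminescence.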
Calls only; i = inactive; ? = inconclusive; + = active, no number. On the % scale 0 is the no-effect control and ±100 the full control effect.

SMILES	Methyltransferases
NC(=O)c1ccc(OCC(O)CN2CC=C(c3ccc(F)cc3)CC2)cc1 (centres undefined)	i
CCOc1ccc(C2c3cccn3-c3ccccc3CN2C(=O)Nc2cc(OC)cc(OC)c2)cc1 (centres undefined)	i
COC(=O)c1cccc(NC(=O)N2Cc3ccccc3-n3cccc3C2c2cccs2)c1 (centres undefined)	i
COc1ccc2c3c([nH]c2c1)C(C=C(C)C)N1C(=O)C2CCCN2C(=O)C1C3 (centres undefined)	i
COc1ccc(C)cc1NC(=O)N1Cc2ccccc2-n2cccc2C1c1ccc(N(C)C)cc1 (centres undefined)	i
COC(=O)c1cccc(NC(=O)N2Cc3ccccc3-n3cccc3C2c2cc(F)cc(F)c2)c1 (centres undefined)	i
CCOc1ccc(NC(=O)N2Cc3ccccc3-n3cccc3C2c2ccc(OC)c(OC)c2)cc1 (centres undefined)	i
CCOC(=O)CNC(=O)N1Cc2ccccc2-n2cccc2C1c1ccccc1C (centres undefined)	i
CN(C)c1ccc(C2c3cccn3-c3ccccc3CN2C(=O)Nc2ccccc2)cc1 (centres undefined)	i
Cc1ccc(C2c3cccn3-c3ccccc3CN2C(=O)Nc2ccc(C)cc2Cl)cc1 (centres undefined)	i
COc1ccc(OC)c(NC(=O)N2Cc3ccccc3-n3cccc3C2c2ccc(SC)cc2)c1 (centres undefined)	i
CNC(=O)c1ccc(N2C(=S)N(c3ccc(C#N)c(C(F)(F)F)c3)C(=O)C23CCC3)cc1F	i
Cc1o[nH]c(=O)c1CC(N)C(=O)O (centres undefined)	i
Cc1ccccc1C1c2cccn2-c2ccccc2CN1C(=O)NCc1ccc(F)cc1 (centres undefined)	i
Cc1sc2c(c1C)C(c1ccc(Cl)cc1)=NC(CC(=O)Nc1ccc(O)cc1)c1nnc(C)n1-2 (centres undefined)	?
Cc1cccc(NC(=O)N2Cc3ccccc3-n3cccc3C2c2ccc(Cl)cc2)c1 (centres undefined)	i
O=C(NCCc1ccccc1)N1Cc2ccccc2-n2cccc2C1c1ccccc1 (centres undefined)	i
CO[C@@H]1[C@H](O)[C@@H](O[C@@H]2C[C@H]3CC[C@@H]4C(CC[C@]5(C)[C@@H](C6=CC(=O)OC6)CC[C@]45O)[C@@]3(C)[C@H](O)C2)O[C@H](C)[C@@H]1O[C@@H]1O[C@H](CO)[C@@H](O)[C@H](O)[C@H]1O (some centres undefined)	i
COc1ccc(NC(=O)N2Cc3ccccc3-n3cccc3C2c2ccccc2C)c(OC)c1 (centres undefined)	i
CCN1CCN(C(c2ccc(Cl)cc2)c2ccc(Cl)cc2)CC1	?
CCC1c2cccn2-c2ccccc2CN1C(=O)NCc1cccc(OC)c1 (centres undefined)	i
Nc1ccncc1	i
COc1cccc([C@H]2CN(c3cc(C)nc(N)n3)[C@@H]3C4CCN(CC4)[C@H]23)c1	i
Cc1ccc(NC(=O)N2Cc3ccccc3-n3cccc3C2c2ccccc2)c(C)c1 (centres undefined)	i
CCC1c2cccn2-c2ccccc2CN1C(=O)Nc1ccc(Br)c(C)c1 (centres undefined)	i

Part of the list above, in markdown.
| smiles | Methyltransferases |
| --- | --- |
| CCOc1ccc(C2c3cccn3-c3ccccc3CN2C(=O)Nc2cc(OC)cc(OC)c2)cc1 (centres undefined) | i |
| COC(=O)c1cccc(NC(=O)N2Cc3ccccc3-n3cccc3C2c2cccs2)c1 (centres undefined) | i |
| COc1ccc2c3c([nH]c2c1)C(C=C(C)C)N1C(=O)C2CCCN2C(=O)C1C3 (centres undefined) | i |
| COc1ccc(C)cc1NC(=O)N1Cc2ccccc2-n2cccc2C1c1ccc(N(C)C)cc1 (centres undefined) | i |
| COC(=O)c1cccc(NC(=O)N2Cc3ccccc3-n3cccc3C2c2cc(F)cc(F)c2)c1 (centres undefined) | i |
| CCOc1ccc(NC(=O)N2Cc3ccccc3-n3cccc3C2c2ccc(OC)c(OC)c2)cc1 (centres undefined) | i |
| CCOC(=O)CNC(=O)N1Cc2ccccc2-n2cccc2C1c1ccccc1C (centres undefined) | i |
| CN(C)c1ccc(C2c3cccn3-c3ccccc3CN2C(=O)Nc2ccccc2)cc1 (centres undefined) | i |
| Cc1ccc(C2c3cccn3-c3ccccc3CN2C(=O)Nc2ccc(C)cc2Cl)cc1 (centres undefined) | i |
| COc1ccc(OC)c(NC(=O)N2Cc3ccccc3-n3cccc3C2c2ccc(SC)cc2)c1 (centres undefined) | i |
| CNC(=O)c1ccc(N2C(=S)N(c3ccc(C#N)c(C(F)(F)F)c3)C(=O)C23CCC3)cc1F | i |
| Cc1o[nH]c(=O)c1CC(N)C(=O)O (centres undefined) | i |
| Cc1ccccc1C1c2cccn2-c2ccccc2CN1C(=O)NCc1ccc(F)cc1 (centres undefined) | i |
| Cc1sc2c(c1C)C(c1ccc(Cl)cc1)=NC(CC(=O)Nc1ccc(O)cc1)c1nnc(C)n1-2 (centres undefined) | ? |
| Cc1cccc(NC(=O)N2Cc3ccccc3-n3cccc3C2c2ccc(Cl)cc2)c1 (centres undefined) | i |
| O=C(NCCc1ccccc1)N1Cc2ccccc2-n2cccc2C1c1ccccc1 (centres undefined) | i |
| CO[C@@H]1[C@H](O)[C@@H](O[C@@H]2C[C@H]3CC[C@@H]4C(CC[C@]5(C)[C@@H](C6=CC(=O)OC6)CC[C@]45O)[C@@]3(C)[C@H](O)C2)O[C@H](C)[C@@H]1O[C@@H]1O[C@H](CO)[C@@H](O)[C@H](O)[C@H]1O (some centres undefined) | i |
| COc1ccc(NC(=O)N2Cc3ccccc3-n3cccc3C2c2ccccc2C)c(OC)c1 (centres undefined) | i |
| CCN1CCN(C(c2ccc(Cl)cc2)c2ccc(Cl)cc2)CC1 | ? |
| CCC1c2cccn2-c2ccccc2CN1C(=O)NCc1cccc(OC)c1 (centres undefined) | i |
| Nc1ccncc1 | i |
| COc1cccc([C@H]2CN(c3cc(C)nc(N)n3)[C@@H]3C4CCN(CC4)[C@H]23)c1 | i |
| Cc1ccc(NC(=O)N2Cc3ccccc3-n3cccc3C2c2ccccc2)c(C)c1 (centres undefined) | i |
| CCC1c2cccn2-c2ccccc2CN1C(=O)Nc1ccc(Br)c(C)c1 (centres undefined) | i |

Back to the main list; the three compounds before the break are reprinted first.
SMILES	Methyltransferases
COc1cccc([C@H]2CN(c3cc(C)nc(N)n3)[C@@H]3C4CCN(CC4)[C@H]23)c1	i
Cc1ccc(NC(=O)N2Cc3ccccc3-n3cccc3C2c2ccccc2)c(C)c1 (centres undefined)	i
CCC1c2cccn2-c2ccccc2CN1C(=O)Nc1ccc(Br)c(C)c1 (centres undefined)	i
CCc1c(C(=O)C(N)=O)c2c(OCC(=O)O)cccc2n1Cc1ccccc1	i
CC[C@H](C)[C@H](NC(=O)[C@H]1CCCCN1C)C(=O)N(COC(=O)CC(C)C)[C@H](C[C@@H](OC(C)=O)c1nc(C(=O)N[C@@H](Cc2ccc(O)cc2)C[C@H](C)C(=O)O)cs1)C(C)C	i
CO[C@@H]1C[C@H](O[C@H]2CC[C@@]3(C)C(CCC4C3CC[C@]3(C)[C@@H](C5=CC(=O)OC5)[C@@H](OC(C)=O)CC43O)C2)O[C@H](C)[C@@H]1O[C@H]1O[C@H](CO[C@@H]2O[C@H](CO)[C@@H](O)[C@H](O)[C@H]2O)[C@@H](O)[C@H](O)[C@H]1O (some centres undefined)	i
O=C(Cc1ccc(Cl)cc1)N1CCN(C2CCN(Cc3ccccn3)C2=O)CC1 (centres undefined)	i
Oc1ccc2c3c1O[C@H]1c4oc5ccccc5c4C[C@@]4(O)C(C2)N(CC2CC2)CCC314 (some centres undefined)	i
CC(=O)OC1CC(O)C2(C)C(CC(OC(C)=O)C3(C)C2CCC2(C)C(c4ccoc4)C(=O)C4OC423)C1(C)C (centres undefined)	i
CC(=O)N1CCC2(C1)N=C(c1cccnc1)C(=O)N2 (centres undefined)	i
COc1cccc(CNC(=O)N2Cc3ccccc3-n3cccc3C2c2ccc(F)cc2)c1 (centres undefined)	i
Clc1ccc(OCC2=NCCN2)cc1Cl	i
CN(Cc1cccc(-c2ccncc2)c1)C(=O)Oc1ccc(-c2ccc(C(N)=O)cc2)cc1	i
CC[C@@H](C)[C@H]1C(=O)O[C@H](C(C)C)C(=O)N(C)[C@@H](C(C)C)C(=O)O[C@H](C(C)C)C(=O)N(C)[C@@H](C(C)C)C(=O)O[C@H](C(C)C)C(=O)N1C	i
N#CCCN	i
Cc1[nH]nc2ccc(-c3cncc(OC[C@@H](N)Cc4c[nH]c5ccccc45)c3)cc12	+
C=C1[C@@H](C)[C@H]2[C@H](Cc3ccccc3)NC(=O)[C@]23[C@H](OC(C)=O)/C=C/[C@](C)(O)C(=O)[C@@H](C)C/C=C/[C@H]3[C@@H]1O	i
CCCCCn1cc(C(=O)c2cccc3ccccc23)c2ccccc21	i
COc1ccc(C(=O)N2C[C@@H]3C[C@H](C2)c2ccc(NC(=O)CN(C)C)c(=O)n2C3)cc1	i
CC(=O)O[C@H]1CC[C@H]2[C@@H]3CC[C@H]4CC(=O)C=C(C)[C@]4(C)[C@H]3CC[C@]12C	i
Cc1ccc([C@@H]2CN(C(=O)c3ccco3)[C@@H]3C4CCN(CC4)[C@@H]32)cc1	i
CC(C)[C@]12O[C@H]1[C@@H]1O[C@]13[C@]1(O[C@H]1C[C@H]1C4=C(CC[C@@]13C)C(=O)OC4)[C@@H]2O	i
CCCNC(=O)N1Cc2ccccc2-n2cccc2C1c1ccc(Cl)cc1 (centres undefined)	i
CC(=O)NCCCOc1ccc(C(=O)N2CCC(N3C(=O)CCc4ccccc43)CC2)cc1	i
O=C(O)C1=NOC2CN(Cc3cncs3)CC12 (centres undefined)	i
COc1ccc(NC(=O)N2Cc3ccccc3-n3cccc3C2c2cccc(C)c2)cc1OC (centres undefined)	i
CS(=O)(=O)N1C[C@H]2CCN(Cc3ccncc3F)C[C@H]21	i
OCCCCC#Cc1cncc(OC[C@@H]2CCN2)c1	i

Other structures:
SMILES	Methyltransferases
Cc1ccc(NC(=O)N2Cc3ccccc3-n3cccc3C2c2ccc(N(C)C)cc2)cc1C (centres undefined)	i
CC(N[C@H]1C[C@H]1c1ccccc1)c1ccc2c(c1)OCCO2 (some centres undefined)	?
COc1ccc(NC(=O)N2Cc3ccccc3-n3cccc3C2C)cc1 (centres undefined)	i
Cc1ccc(C2c3cccn3-c3ccccc3CN2C(=O)Nc2ccccc2F)cc1 (centres undefined)	i
Cc1ccccc1C1c2cccn2-c2ccccc2CN1C(=O)NCc1ccccc1 (centres undefined)	i
COC1=CC(=O)O[C@@H](/C=C/c2ccccc2)C1	i
CCOC(=O)Cc1ccc(NC(=O)N2Cc3ccccc3-n3cccc3C2c2cccc(C)c2)cc1 (centres undefined)	i
CC1(N2CCC(n3c([C@@H]4CCCNC4)nc4ccccc43)CC2)CCCCCCC1	i
CN1C(=O)[C@@H](Cc2c[nH]c3ccccc23)N=C(c2ccccc2F)c2ccccc21	i
CN1CCN(c2ccc([N+](=O)[O-])c3no[n+]([O-])c23)CC1	i
c1cc2c(cc1C1OC[C@@H]3C(c4ccc5c(c4)OCO5)OC[C@H]13)OCO2 (some centres undefined)	?
C[C@]12CC[C@H](O[C@@H]3O[C@H](CO)[C@@H](O)[C@H](O)[C@H]3O[C@@H]3O[C@H](CO)[C@@H](O)[C@H](O)[C@H]3O)CC1=CC[C@@H]1[C@@H]2CC[C@]2(C)[C@@H](C3=CC(=O)OC3)CC[C@]12O	i
C#C[C@H]1CN2CC[C@H]1C[C@@H]2CNC(=O)COCC(=O)O	i
Cc1cccc(C2c3cccn3-c3ccccc3CN2C(=O)Nc2ccccc2)c1 (centres undefined)	i
CCc1nc(C)c(C(=O)N2C[C@@H](c3ccc(F)cc3)[C@@H]3[C@H]2C2CCN3CC2)o1	i
O=C1NCCCCCN(Cc2cccnc2)[C@H]2CCC[C@@H]12	i
COC1CC(O[C@H]2CC[C@@]3(C)C(CCC4C3CC[C@]3(C)[C@@H](C5=CC(=O)OC5)CC[C@]43O)C2)OC(C)C1O (some centres undefined)	i
CCc1ccc(NC(=O)N2Cc3ccccc3-n3cccc3C2c2ccc(C)cc2)cc1 (centres undefined)	i
Cc1ccccc1NC(=O)N1Cc2ccccc2-n2cccc2C1C(C)C (centres undefined)	i
Cc1cccc(C2c3cccn3-c3ccccc3CN2C(=O)NCc2ccc(F)cc2)c1 (centres undefined)	i
C[C@H]1O[C@@H](n2cnc3c(N)ncnc32)C[C@@H]1O	i
Cc1ccc(C2c3cccn3-c3ccccc3CN2C(=O)Nc2cc(C)cc(C)c2)cc1 (centres undefined)	i
Cc1ncc2c(n1)C[C@@H]1CC[C@H]2N1C(=O)C1CCC1	i
OCc1cnc[nH]1	i

An excerpt (hit frequency here may not be typical).
